From PubChem
KCNQ2 enhance – enhances the rat KCNQ2 potassium channel | O88943 | CHO-K1 KCNQ2, FluxOR thallium flux fluorescence; stronger effect = higher value | B-score at 10 µM | actives 0.54% (n = 310,000) | AID 2239;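 active means fluorescence ratio B-score at least 3 SD of library B-scores, with initial fluorescence B-score within 3 SD, cut at about 5.3 in these data; same plate scores as AID 2156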;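 further: B-score of peak minus minimum over baseline fluorescence ratio after K+ and Tl+ stimulus; positive B-score means potentiation of KCNQ2 with more thallium influx and brighter signal; only the inactives scoring about 0 or higher are listed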
Target sequence (O88943 whole entry, looked up): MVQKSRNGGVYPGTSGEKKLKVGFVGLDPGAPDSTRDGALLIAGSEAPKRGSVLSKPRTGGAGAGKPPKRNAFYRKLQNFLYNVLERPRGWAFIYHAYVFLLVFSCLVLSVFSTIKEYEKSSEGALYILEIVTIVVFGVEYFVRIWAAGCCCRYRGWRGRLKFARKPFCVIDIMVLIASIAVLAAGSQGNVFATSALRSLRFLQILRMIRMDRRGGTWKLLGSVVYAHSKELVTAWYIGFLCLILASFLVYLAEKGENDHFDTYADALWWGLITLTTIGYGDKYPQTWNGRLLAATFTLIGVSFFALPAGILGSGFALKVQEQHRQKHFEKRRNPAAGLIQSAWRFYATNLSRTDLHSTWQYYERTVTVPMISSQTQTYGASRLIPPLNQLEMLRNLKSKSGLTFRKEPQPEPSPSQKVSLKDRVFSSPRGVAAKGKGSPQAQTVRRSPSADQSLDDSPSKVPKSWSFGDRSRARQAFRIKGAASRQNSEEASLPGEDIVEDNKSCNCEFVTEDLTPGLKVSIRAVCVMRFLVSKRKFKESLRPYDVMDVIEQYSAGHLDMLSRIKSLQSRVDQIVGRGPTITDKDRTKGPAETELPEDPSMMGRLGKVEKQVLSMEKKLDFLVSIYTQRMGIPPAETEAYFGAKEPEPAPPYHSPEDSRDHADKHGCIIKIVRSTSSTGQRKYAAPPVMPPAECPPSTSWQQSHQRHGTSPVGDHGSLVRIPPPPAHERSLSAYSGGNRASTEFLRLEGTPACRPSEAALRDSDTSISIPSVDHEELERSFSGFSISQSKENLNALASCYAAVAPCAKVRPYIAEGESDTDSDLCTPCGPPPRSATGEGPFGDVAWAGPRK
KCNQ2 enhance baseline – recorded beside KCNQ2 enhance, whose call it bears; B-score; compound at 10 µM; measured here: initial fluorescence intensity artifact check;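 brightness before thallium and not channel activity; 0 = typical well and far values either way flag optical interference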
Active calls of the source: *. The list is partial; count on the stated rates, not on these rows.

The opening 4 entries as a preview:
Screens in order: KCNQ2 enhance	KCNQ2 enhance baseline
> CCN1CCN(CC(=O)Nc2cc3c(cc2C(C)=O)OCO3)CC1
    1.4	-2.6
> COc1ccc(OC)c(-c2csc(N(CC3CCCO3)C(=O)Cc3ccccc3)n2)c1 (stereo not given)
    2.5	0.05
> CC(C)CC(=O)NCc1ccc(F)cc1
    0.3	-1
> CN(c1ccc(C(=O)Nc2cccnc2)cc1)S(=O)(=O)c1ccccc1
    2	-0.09

The list itself, from the first entry:
Screens in order: KCNQ2 enhance	KCNQ2 enhance baseline
> CCN1CCN(CC(=O)Nc2cc3c(cc2C(C)=O)OCO3)CC1
    1.4	-2.6
> COc1ccc(OC)c(-c2csc(N(CC3CCCO3)C(=O)Cc3ccccc3)n2)c1 (stereo not given)
    2.5	0.05
> CC(C)CC(=O)NCc1ccc(F)cc1
    0.3	-1
> CN(c1ccc(C(=O)Nc2cccnc2)cc1)S(=O)(=O)c1ccccc1
    2	-0.09
> CCN(CC)CCC(c1ccc(N(C)C)cc1)c1c(O)cc(OC)cc1OC (stereo not given)
    0.35	0.26
> CSc1ccccc1C(=O)N1CCOCC1
    0.12	0.74
> O=[N+]([O-])c1ccccc1/C=C/CN1CCCCC1CO (stereo not given)
    1	-0.28
> CSc1nc2nc3c(cc2c(=O)n1-c1ccccc1C)COC(C)(C)C3
    1.4	1.4
> CCCN(CCC)CCNS(=O)(=O)c1ccc2c(c1)CCN2C(=O)C1CCC1
    0.06	0.27
> CC(C)[C@H](NC(=O)Nc1ccccc1F)C(=O)O
    1.5	-0.08
> CC(Sc1ccccc1)C(=O)Nc1ccc(S(=O)(=O)N2CCOCC2)cc1 (stereo not given)
    2	1.5
> CCSc1nnc(-c2cc(Br)ccc2N)c(=O)[nH]1
    0.06	-0.14
> COc1cc(OC)cc(C(=O)N[C@H](C(=O)Nc2cc(C)cc(C)c2)C(C)C)c1
    0.78	-0.4
> O=C(O)C1C2CCC(C2)C1C(=O)Nc1ccc(Cl)c(Cl)c1 (stereo not given)
    0.08	-1.3
> CCc1ccc(NC(=O)CC2C(=O)NCCN2C(=O)c2ccc(F)cc2)cc1 (stereo not given)
    0.78	0.41

Screens in order: KCNQ2 enhance	KCNQ2 enhance baseline
> COC(=O)Cc1ccc(NC(=S)NNC(=O)C2CC2)cc1
    0.07	-0.08
> C[C@H](NC(=O)c1[nH]cnc1C(=O)Nc1ccccc1)C(=O)OC(C)(C)C
    0.91	0.1
> Cc1ccccc1-c1nc(CS(=O)(=O)CC(=O)NCCCN2CCN(C)CC2)c(C)o1
    0.18	-1.6
> O=C(c1c[nH]c2ccc(S(=O)(=O)N3CCOCC3)cc2c1=O)N1CCN(c2ccccn2)CC1
    0.72	3.1
> C/C(=N\NC(=O)CNC(=O)c1ccc(F)cc1)c1ccco1
    0.7	0.56
> O=C(CNC(=O)c1cccc(Cl)c1)Nc1ccc(F)c(F)c1F
    2.3	-0.13
> CN1C(C)(C)CC(NC(=O)CCC(=O)NC2CC(C)(C)N(C)C(C)(C)C2)CC1(C)C
    0.29	0.82
> CCOC(=O)c1c(NC(=S)NC)sc2c1CCCC2
    11*	-0.93*
> COC(=O)c1ccccc1NC(=O)CNC(=O)c1ccco1
    1.4	-1.9
> C=CCn1c(CNC(=O)c2ccco2)nnc1SCC(=O)c1ccc(F)cc1
    0.26	-0.49
> CCc1ccc(C(=O)Nc2cccc(-c3nn[nH]n3)c2)s1
    2.3	-1
> CC1CCc2nn(CC(=O)NCc3ccco3)cc2C1 (stereo not given)
    0.51	-4
> CCOc1ccccc1NC(=O)COC(=O)c1cc[n+]([O-])cc1
    0.2	1
> CCOC(=O)C1CCCN(C(=O)Cn2ncc3c([nH]c4ccccc43)c2=O)C1 (stereo not given)
    0.05	-1.9
> Cc1cc(C)cc(N2CC(C(=O)Nc3cc(C)on3)CC2=O)c1 (stereo not given)
    0.01	-1.1

Screens in order: KCNQ2 enhance	KCNQ2 enhance baseline
> Cc1cccc(NC(=O)c2ccc(S(=O)(=O)N(C)C)cc2)c1
    1.2	0.08
> COc1ccc(/C=N/S(=O)(=O)c2ccccc2)cc1OC
    0.49	-0.41
> CN(C)C(=O)c1noc2cc([N+](=O)[O-])ccc12
    2.8	-1.9
> CCC(=O)Nc1ccc(N2CCN(C(=O)c3ccccc3C)CC2)cc1
    1.1	0.24
> COc1ccc(OCC(=O)NNC(=O)Cc2coc3cc(OC)ccc23)cc1
    0.34	2.6
> CC(C)(C)c1ccc(-n2ncc3c2CCCC3NC(=O)CCCn2cncn2)cc1 (stereo not given)
    1.2	-2.7
> COC(=O)c1ccc(NC(=O)CCS(=O)(=O)c2ccc(Br)s2)cc1
    0.3	-0.17
> COc1ccc(-n2ccc(=O)c3c2CCCC3=O)cc1
    0.84	0.36
> Cc1cccc(C(C)C)c1NC(=O)COC(=O)Cc1ccsc1
    0.73	-0.24
> CC(NC(=O)Cn1cc([N+](=O)[O-])cn1)c1ccc(C(C)(C)C)cc1 (stereo not given)
    1.8	1.1
> COc1cccc(NS(=O)(=O)c2cc3c(cc2C)N(C)CCO3)c1
    2.5	-0.86
> CC(C)CCNC(=O)C(c1ccco1)N(CCCO)C(=O)Cn1nnc(-c2ccc(F)cc2)n1 (stereo not given)
    0.71	0
> Cc1nc2ccccc2c2oc(C(=O)NCc3ccc4c(c3)OCO4)cc12
    1.2	-0.15
> Cc1ccc(C2CC(=O)N3CN(Cc4ccco4)CSC3=C2C#N)cc1 (stereo not given)
    0.8	-0.01
> Cc1cc(Cl)ccc1OCCCC(N)=O
    1.8	-0.87

Screens in order: KCNQ2 enhance	KCNQ2 enhance baseline
> Cc1ccccc1CCNC(=O)Cn1ccc2cc(S(=O)(=O)N3CCCC3)ccc21
    1.4	-0.79
> COCCNC(=O)c1cc2c(-c3ccccc3F)nn(C)c2s1
    2	-0.02
> O=C(c1ccco1)N1CCN(c2ncnc3c2[nH]c2ccc(Cl)cc23)CC1
    1.9	0.32
> Cc1ccc(S(=O)(=O)NCc2cn3ccsc3n2)c(C)c1
    0.99	0.59
> CCC(C)NCCCCOc1ccc(C)cc1[N+](=O)[O-] (stereo not given)
    0.2	-0.05
> O=C(Nc1cccc(-c2nc3ccccc3[nH]2)c1)c1ccccn1
    1.4	-1.9
> COc1cc2c(c(OC)c1OC)C(=O)CC2
    0.31	-0.23
> Cc1[nH]nc(SCC(=O)NCC(C)C)c1[N+](=O)[O-]
    0.94	-0.78
> O=C(COc1ccccc1)N=C1SC2CS(=O)(=O)CC2N1c1ccc(F)cc1 (stereo not given)
    0.44	0.45
> COc1cc(OC)cc(C(=O)Nc2cc(C)nn2-c2ccccc2)c1
    0.49	-1.6
> CC(C(=O)NCC1CCCO1)N1C(=O)C2C3CC(C(Br)C3Br)C2C1=O (stereo not given)
    0.7	0.92
> S=C(c1ccc(N2CCCC2)c(Br)c1)N1CCCCC1
    0.28	-0.12
> Brc1ccc(C2=Nn3cnnc3SC2)cc1
    0.5	-0.08
> O=C1CN(C(=O)COC(=O)CNS(=O)(=O)c2ccccc2)c2ccccc2N1
    1.9	-2.1
> COc1ccc(CCNC(=O)C23CCC(C)(C(=O)O2)C3(C)C)cc1OC (stereo not given)
    0.5	0.35

Screens in order: KCNQ2 enhance	KCNQ2 enhance baseline
> COC(=O)c1sccc1NC(=O)CSc1ccccc1NS(=O)(=O)c1cc(Cl)ccc1Cl
    1.5	1.6
> COc1ccc(NC(=S)N2CCN(Cc3cccc(F)c3)CC2)c(OC)c1
    1.1	-0.49
> COc1ccc(C(=O)NC2CCN(C(=S)Nc3cc(C)ccc3C)CC2)cc1
    0.29	1.3
> Nc1nc(Nc2cccc(Cl)c2)n[nH]1
    0.72	0.08
> Cn1nc(C(=O)N2CCN(S(=O)(=O)c3ccccc3)CC2)c2ccccc2c1=O
    0.56	-0.05
> Cc1cc(COc2ccccc2O)on1
    0.48	-0.23
> Cc1[nH]c2ccc(-c3n[nH]c(=S)n3-c3ccccc3)cc2c1C
    1.2	-0.24
> O=C(O)c1ccc(N2C(=O)CC(SC(=Nc3ccccc3)Nc3ccccc3)C2=O)cc1 (stereo not given)
    0.13	4.6
> Cc1ccc(Oc2nc(-c3cccnc3)nc3ccccc23)c([N+](=O)[O-])n1
    0.89	-0.16
> COc1ccc(C(=O)N(CN2CCCC2=O)c2ccccc2OC)cc1OC
    0.09	-1.2
> CCN(CC)c1ccc(NC(=O)COC(=O)CSc2ccc(Br)cc2C)cc1
    3	-0.35
> COc1c(F)c(F)c(C(=O)Nc2ccc(NC(=O)Cc3ccccc3)cc2)c(F)c1F
    0.51	0.11
> CC(C)Oc1ccc(/C(O)=C2/C(=O)C(=O)N(CCN3CCNCC3)C2c2cccc([N+](=O)[O-])c2)cc1 (stereo not given)
    0.62	-0.72
> CCOc1c(Br)cc(C2NC(=O)CCC2[N+](=O)[O-])cc1OC (stereo not given)
    0.04	-0.29
> COc1ccc(NC(=O)c2cc(OC)c(OC)c(OC)c2)cn1
    2	-0.79

Screens in order: KCNQ2 enhance	KCNQ2 enhance baseline
> CCN1CCN(C(=S)c2ccc(OCC(=O)Nc3ccc(OC)cc3)cc2)CC1
    0.78	1.4
> CCN(CC)CCNC(=O)C1c2ccccc2Oc2ccccc21
    2	-0.65
> CCCCn1nc2cc(C(=O)NCc3ccc4c(c3)OCO4)ccc2c1OCC
    0.49	1.2
> C#CCNC(=O)c1cccn1-c1ncc(C(F)(F)F)cc1Cl
    0.57	-0.07
> CC(=O)Nc1ccc(/C(C)=N/NC(=O)C2CC2c2ccccc2)cc1 (stereo not given)
    0.74	0.84
> CCCc1n[nH]c(=S)n1Cc1ccco1
    0.77	0.48
> O=C(O)c1ccc(NS(=O)(=O)c2ccc3c(c2)OCCCO3)cc1
    1.2	0.65
> COc1ccc(Cc2nnc(Nc3ccccc3OC)[nH]c2=O)cc1
    0.01	2.6
> CCn1c(/C=C/c2ccc([N+](=O)[O-])o2)nc2ccccc2c1=O
    0.45	0.28
> CCOC(=O)C1CCC(CNCc2ccccc2C)CC1 (stereo not given)
    0.72	0.18
> COc1ccc(C2(c3ccc(OC)cc3)NC(=O)N(Cn3nnc4ccccc4c3=O)C2=O)cc1
    0.74	0.21
> CCOC(=O)C(NC(=O)Nc1ccc(F)cc1F)(Oc1ccccc1)C(F)(F)F (stereo not given)
    0.02	-1.2
> N#Cc1c(N)nc2c3c(sc(=N)c2c1N)NC(=O)CC3c1ccccc1 (stereo not given)
    0.81	-0.04
> CCNC(=O)NCCc1c[nH]c2ccc(Cl)cc12
    0.95	0.43
> C=C(C)CNC(=S)NNC(=O)CCn1c2ccccc2c2ccccc21
    1.8	-0.11

Screens in order: KCNQ2 enhance	KCNQ2 enhance baseline
> CCOc1ccc(CCNC(=O)C2CCN(S(=O)(=O)N3CCOCC3)CC2)cc1OCC
    0.29	0.68
> COC(=O)N/N=C(\C)c1ccc(Br)cc1
    0.12	-0.24
> COc1ccc(CCC(=O)Nc2nccs2)cc1OC
    0.23	0.3
> Cc1ccc(S(=O)(=O)Nc2cc(S(=O)(=O)N3CCCCC3)ccc2N2CCOCC2)cc1
    0.99	-1
> COc1ccc(Cl)cc1S(=O)(=O)N(C)CC(=O)NCc1ccc2c(c1)OCO2
    2.2	-1.6
> CC(C)(C)c1nc(SCC(=O)Nc2ccc(N3CCOCC3)cc2)c2ccccc2n1
    0.79	-0.85
> COCCNC(=O)c1ccc(CSCc2cccc(Cl)c2)o1
    0.16	5
> CCC(C)NC(=O)CN1C(=O)CC(C)(C)S(=O)(=O)c2ccccc21 (stereo not given)
    0.67	3.1
> Cc1nc2cc(CC(=O)O)ccc2o1
    0.78	0.33
> Cc1ccc(C(=O)NC(=S)N2CCN(c3cc(C)ccc3C)CC2)cc1
    5.2	0.03
> Cc1c(C(=O)Nc2ccc(OCc3ccccc3)cc2)cccc1[N+](=O)[O-]
    2.3	0.33
> Cc1cccc2cc(C3CC(c4cccs4)=NN3C(=O)CCC(=O)O)c(Cl)nc12 (stereo not given)
    0.25	0.03
> NC(=O)C1=C[C@H](c2csc3ccccc23)C[C@H](OCc2ccc(CO)cc2)O1
    1.1	-1.5
> Cc1cc(C)nc(NC(=O)CSc2nnnn2-c2ccccc2)n1
    0.84	0
> COC(=O)CSc1nc2ccc(C)cc2[nH]1
    0.79	0.54

Screens in order: KCNQ2 enhance	KCNQ2 enhance baseline
> CC(O)[C@H]1CNCCN1CC1(c2ccccc2)CC1 (stereo not given in full)
    0.86	-0.36
> O=C(c1ccccc1)c1nnc(-c2ccccc2F)o1
    0.43	0.89
> CCCCc1nc2n[nH]c(N)c2c2c1CSC(C)(C)C2
    0.85	0.39
> Cc1cc(C)c2c(N)c(C(=O)NCc3ccco3)sc2n1
    0.02	-0.2
> O=C(Cn1cnc2c(nnn2Cc2ccccc2F)c1=O)NCc1ccco1
    0.16	0.16
> CCCCNc1ncnc2c1cnn2Cc1ccc(Cl)cc1
    1.7	-0.07
> Cc1c(NC(=O)c2cc3ccccc3c(=O)s2)c(=O)n(-c2ccccc2)n1C
    0.26	0.69
> Cc1noc(C)c1Cn1nc(C(=O)O)c2ccccc2c1=O
    0.57	0.87
> Cc1sc2ncn(CC(=O)NCC(=O)N3CCN(c4ccc(F)cc4)CC3)c(=O)c2c1C
    1.4	1.6
> COCCn1c(SCC(=O)c2ccc3c(c2)OCCO3)nnc1-c1ccco1
    3	-0.02
> CC(C)(C)c1n[nH]c(=S)n(/N=C/c2cccs2)c1=O
    0.42	0.17

Exported with each value named: entries from further up.
compound: Brc1ccc(C2=Nn3cnnc3SC2)cc1
  KCNQ2 enhance = 0.5	KCNQ2 enhance baseline = -0.08

compound: COCCNC(=O)c1ccc(CSCc2cccc(Cl)c2)o1
  KCNQ2 enhance = 0.16	KCNQ2 enhance baseline = 5

compound: Cc1c(C(=O)Nc2ccc(OCc3ccccc3)cc2)cccc1[N+](=O)[O-]
  KCNQ2 enhance = 2.3	KCNQ2 enhance baseline = 0.33

compound: COc1cc2c(c(OC)c1OC)C(=O)CC2
  KCNQ2 enhance = 0.31	KCNQ2 enhance baseline = -0.23
